# Env fusion inh: inhibitors of HIV Env-mediated cell fusion | HeLa-JRFL Env/CEM21 cell fusion, luciferase | inhibition, % at 12.3 µM | 360,000 compounds, 1.1% hits | AID 651610;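 active = mean replicate inhibition score of at least 50 and every replicate individually at or above 50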;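 note: 0% = plate neutral controls and 100% = maraviroc near 300 nM; one replicate is shown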
# * hit, by the source's call; [ ] = another dose, or the depositor's remark. A portion of the library, so the mix of outcomes need not match the whole.
Compound,Env fusion inh
Nc1nc2c(ncn2[C@@H]2O[C@H](C(=O)N[C@@H](Cc3ccccc3)C(=O)NCc3ccc4c(c3)OCO4)[C@@H](O)[C@H]2O)c(=O)[nH]1,-3
C[C@@H]1CN([C@H](C)CO)C(=O)c2cc(NS(=O)(=O)c3ccc(F)cc3)ccc2O[C@H]1CN(C)S(=O)(=O)c1cn(C)cn1,-4[16.7 µM]
CON(C)C(=O)[C@H]1C[C@@H]2[C@H](C[C@@H](c3ccccc3)[C@H]1C)N(c1ccc(F)cc1)C(=O)N2CCCOc1ccccc1,-2
Cc1ccc(F)cc1S(=O)(=O)N[C@H]1CCN(Cc2ccc(OC(C)C)cc2)C1,-8[16.7 µM]
CC(C)(C)[S@](=O)N1Cc2cc(C(=O)NCc3ccncc3)nc(-c3cccc(-c4ccc(C#N)cc4)c3)c2[C@@H]1CCO,-11[16.7 µM]
CN(C)C(=O)C[C@H]1CC[C@@H](NC(=O)C2CCOCC2)[C@H](CO)O1,-21[16.7 µM]
CN(C)CC#Cc1cccc(-c2nc(C(=O)NCc3ccc4c(c3)OCO4)cc3c2[C@@H](CCO)N(S(=O)C(C)(C)C)C3)c1 (stereo partly specified),17[16.7 µM]
CCCNC(=O)N[C@@H]1C=C[C@H](CC(=O)NCCc2ccccc2)O[C@@H]1CO,5[16.7 µM]
COC(=O)C[C@H]1CC[C@H]2[C@@H](COc3ccc(NC(=O)c4ccc(OC)cc4)cc3C(=O)N2C)O1,0[16.7 µM]
C[C@@H]1CN([C@H](C)CO)C(=O)c2cc(NC(=O)c3ccncc3)ccc2O[C@@H](C)CCCCO[C@H]1CN(C)C(=O)c1ccccc1,15[16.7 µM]
CCC(=O)N1C[C@H](C)[C@H](OC)CN(C)C(=O)c2cc(NC(=O)c3cnccn3)ccc2OC[C@@H]1C,-7[16.7 µM]
CO[C@H]1CN(C)C(=O)c2cc(C#N)ccc2OCC[C@@H]2CC[C@@H](OC)[C@H](CN(C)C(=O)[C@@H]1C)O2,17[16.7 µM]
COCC(=O)N1C[C@H](C)[C@@H](OC)CN(C)C(=O)c2ccc(NS(C)(=O)=O)cc2OC[C@H]1C,22[16.7 µM]
Cc1noc(C)c1NC(=O)N(C)C[C@H]1OCCCC[C@@H](C)Oc2ccc(N(C)C)cc2C(=O)N([C@H](C)CO)C[C@H]1C,-36[16.7 µM]
CC(C)(C)[S@](=O)N1Cc2cc(C(=O)NCCN3CCCC3)nc(-c3cccc(-c4ccc(C#N)cc4)c3)c2[C@@H]1CCO,-5[16.7 µM]
O=C(NN=Cc1ccco1)C(=O)Nc1ccc(Cl)c([N+](=O)[O-])c1,7
O=C(C[C@@H]1CC[C@@H]2[C@H](COC[C@H](O)CN2C(=O)c2ccc(F)cc2)O1)N1CCCCC1,-4[16.7 µM]
COc1ccc(S(=O)(=O)Nc2ccc3c(c2)C(=O)N([C@H](C)CO)C[C@H](C)[C@@H](CN(C)C)OCCCC[C@H](C)O3)cc1,20[16.7 µM]
CC(C)NC(=O)Nc1ccc2c(c1)C(=O)N([C@@H](C)CO)C[C@H](C)[C@H](CN(C)C(=O)c1ccncc1)OCCCC[C@H](C)O2,4[16.7 µM]
C[C@H](CO)N1C[C@H](C)[C@H](CN(C)S(=O)(=O)c2ccc(F)cc2)Oc2c(NC(=O)Nc3cccc4ccccc34)cccc2C1=O,-6[16.7 µM]
O=C(/C=C/c1ccccc1)Nc1cccc(C(=O)NCc2ccccc2)c1,12
COCC(=O)Nc1ccc2c(c1)C(=O)N(C)C[C@@H](OC)[C@H](C)CN[C@@H](C)CO2,-13[16.7 µM]
C[C@H](NC(=O)C[C@@H]1CC[C@@H]2[C@H](COC[C@@H](O)CN2C(=O)Nc2cccc(Cl)c2)O1)c1ccccc1,10[16.7 µM]
COc1ccc(-c2ccc3c(n2)CCCN3S(=O)(=O)c2ccc(OC)cc2)cc1,-10
COc1ccc(S(=O)(=O)N(C)C[C@H]2OCCCC[C@@H](C)Oc3ccc(NS(=O)(=O)c4cn(C)cn4)cc3C(=O)N([C@H](C)CO)C[C@@H]2C)cc1,-11[16.7 µM]
CCNC(=O)[C@H]1[C@H](CO)[C@H]2Cn3c(ccc(-c4ccc(F)cc4)c3=O)[C@@H]1N2C(=O)c1ccccn1,18[16.7 µM]
COc1ccc(S(=O)(=O)N(C)C[C@@H]2Oc3c(NC(=O)Nc4ccc(F)cc4)cccc3C(=O)N([C@@H](C)CO)C[C@H]2C)cc1,-14[16.7 µM]
O=C(C[C@H]1CC[C@@H]2[C@H](COC[C@H](O)CN2C(=O)c2cccnc2)O1)Nc1ccc(-c2ccccc2)cc1,-6[16.7 µM]
O=C(C[C@H]1CC[C@@H](NC(=O)Cc2ccccn2)[C@H](CO)O1)NCCc1ccncc1,-7[16.7 µM]
CC(C)NC(=O)Nc1ccc2c(c1)C(=O)N([C@@H](C)CO)C[C@@H](C)[C@@H](CN(C)C(=O)CCC(F)(F)F)OCCCC[C@@H](C)O2,86*[16.7 µM]

# Random excerpt: four entries already listed, in no set order.
Compound,Env fusion inh
CCNC(=O)[C@H]1[C@H](CO)[C@H]2Cn3c(ccc(-c4ccc(F)cc4)c3=O)[C@@H]1N2C(=O)c1ccccn1,18[16.7 µM]
COc1ccc(S(=O)(=O)N(C)C[C@@H]2Oc3c(NC(=O)Nc4ccc(F)cc4)cccc3C(=O)N([C@@H](C)CO)C[C@H]2C)cc1,-14[16.7 µM]
O=C(/C=C/c1ccccc1)Nc1cccc(C(=O)NCc2ccccc2)c1,12
CC(C)NC(=O)Nc1ccc2c(c1)C(=O)N([C@@H](C)CO)C[C@H](C)[C@H](CN(C)C(=O)c1ccncc1)OCCCC[C@H](C)O2,4[16.7 µM]

# (cont.)
Compound,Env fusion inh
CCC(=O)N1[C@@H]2c3ccc(C4=CCCCC4)c(=O)n3C[C@@H]2[C@@H](CO)[C@@H]1C(=O)NCc1ccc(F)cc1,16[16.7 µM]
O=C(C[C@H]1C[C@@H]2c3cc(NS(=O)(=O)c4ccc(F)cc4)ccc3O[C@@H]2[C@@H](CO)O1)NCc1ccc(Oc2ccccc2)cc1,-66[16.7 µM]
C[C@@H]1CN([C@H](C)CO)C(=O)Cc2cc(NS(=O)(=O)c3ccccc3)ccc2O[C@H]1CN(C)C(=O)Nc1ccc2c(c1)OCO2,-8[16.7 µM]
COCC(=O)N[C@@H]1C=C[C@@H](CC(=O)NCc2ccc(Cl)cc2)O[C@@H]1CO,-14[16.7 µM]
CO[C@H]1CN(C)C(=O)c2ccc(NC(=O)Cc3ccccc3)cc2OC[C@@H](C)N(C(=O)c2ccccc2F)C[C@H]1C,-16[16.7 µM]
COC(=O)C1=C(C)N(Cc2ccccc2C(F)(F)F)C(=NCc2cccc(C(F)(F)F)c2)NC1CCc1ccccc1 (stereo unspecified),-24
CC(C)NC(=O)Nc1ccc2c(c1)C(=O)N([C@@H](C)CO)C[C@@H](C)[C@@H](CN(C)S(C)(=O)=O)O2,-5[16.7 µM]
O=C(CCCCCn1c(=O)[nH]c2ccccc2c1=O)NC1CCCC1,30
COC(=O)N1C[C@H](OCCCOCc2ccccc2)[C@H]2C[C@@H]1c1ccccc1O2,9
CN(C)c1ccc2c(c1)[C@@H]1C[C@@H](CC(=O)NCc3ccccn3)O[C@@H](CO)[C@@H]1O2,-8[16.7 µM]
CCCNC(=O)N1CC2(CCN(C(=O)c3cccnc3)CC2)c2c([nH]c3cc(OC)ccc23)[C@H]1CO,-6[16.7 µM]
C[C@@H]1CN([C@@H](C)CO)S(=O)(=O)c2ccc(-c3ccc(F)cc3)cc2O[C@@H]1CN(C)Cc1ccccc1C(=O)O,0[16.7 µM]
CC=Cc1ccc2n(c1=O)C[C@@H]1[C@@H](CO)[C@H](C(=O)NCCCN(C)C)[C@H]2N1C(=O)c1ccccc1F (mixture of isomers),3[16.7 µM]
CNC(=O)C[C@@H]1CC[C@@H]2[C@H](COc3ccc(NC(=O)c4cc(F)cc(F)c4)cc3C(=O)N2C)O1,3[16.7 µM]
CO[C@H]1CN(C)C(=O)c2ccc(NS(C)(=O)=O)cc2OC[C@@H](C)N(Cc2nccs2)C[C@H]1C,-9[16.7 µM]
COC(=O)[C@H]1[C@H](CO)[C@H]2Cn3c(ccc(C4=CCCCC4)c3=O)[C@H]2N1Cc1ccc2c(c1)OCO2,-13[16.7 µM]
Cc1cc(Oc2cccnc2)ccc1NC(=O)Cc1c[nH]c2ccccc12,-49
CO[C@H]1CC[C@H]2CCOc3c(C#N)cccc3C(=O)N(C)C[C@H](C)C(=O)N(C)C[C@H]1O2,7[16.7 µM]
Cc1ccccc1C(=O)N1CCC[C@@H]1C(=O)N1CCC[C@H]1C(=O)NCc1ccccc1,-16
C[C@@H](C(=O)N(C)C[C@H]1OCc2ccccc2-c2ccccc2C(=O)N([C@@H](C)CO)C[C@@H]1C)c1ccccc1,38[16.7 µM]
C#CCN(Cc1ccco1)C(=O)c1nnc2c3cc(OC)ccc3n(S(=O)(=O)c3ccc(OC)cc3)c2n1,15
COCC(=O)Nc1ccc2c(c1)OC[C@H](C)N(CC1CC1)C[C@H](C)[C@H](OC)CN(C)C2=O,5[16.7 µM]
COc1cccc(CNC(=O)[C@H]2CCCN2C(=O)[C@H]2CCCN2C(=O)c2ccc(F)c(C(F)(F)F)c2)c1,-12
CC(=O)c1ccc(S(=O)(=O)NCC2CCN(C(=O)C(=O)c3cc4ccccc4o3)CC2)cc1,-18
CO[C@H]1CN(C)C(=O)c2cc(NC(=O)Nc3cccc(F)c3)ccc2OC[C@H](C)N(C(=O)Nc2c(C)noc2C)C[C@H]1C,1[16.7 µM]
CC(C)NC(=O)Nc1ccc2c(c1)C(=O)N([C@@H](C)CO)C[C@@H](C)[C@@H](CN(C)C)OCCCC[C@@H](C)O2,-128[16.7 µM]
COc1cccc(S(=O)(=O)Nc2ccc3c(c2)C(=O)N(C)[C@H]2CC[C@H](CC(=O)Nc4ccc(C(C)C)cc4)O[C@@H]2CO3)c1,39[16.7 µM]
CCCC(=O)Nc1ccc2c(c1)C(=O)N(C)C[C@@H](OC)[C@@H](C)CN(Cc1ccccc1)[C@@H](C)CO2,1[16.7 µM]
CN1CCN(C(=O)C[C@H]2CC[C@H]3[C@@H](COC[C@H](O)CN3C(=O)c3ccccc3F)O2)CC1,-3[16.7 µM]
C=CCOC(=O)[C@H]1[C@@H]2C(=O)O[C@@H](c3ccccc3)[C@@H](c3ccccc3)N2[C@@H](c2ccc(OCCOC(=O)[C@H]3C[C@H]4C(=O)N[C@@H](Cc5ccccc5)C(=O)N4[C@H]3c3ccc(O)cc3)cc2)[C@]12C(=O)Nc1ccc(I)cc12,-6[16.7 µM]

# Remaining list, next part
Compound,Env fusion inh
CN1C(=O)c2cc(NC(=O)c3ccc(F)c(F)c3)ccc2OC[C@H]2O[C@@H](CC(=O)N3CCOCC3)CC[C@H]21,0[16.7 µM]
CCCN1CCCCC(NC(C)=O)C1=O (stereo unspecified),7
COc1ccc(C(=O)NCC2CCN(C(=O)C(=O)c3cccs3)CC2)cc1,-32
C[C@@H]1CN([C@@H](C)CO)C(=O)c2ccccc2-c2ccccc2CO[C@H]1CN(C)S(=O)(=O)c1ccsc1,-1[16.7 µM]
O=C(C[C@@H]1CC[C@@H]2[C@H](COC[C@H](O)CN2C(=O)c2ccc(F)cc2)O1)Nc1ccc(-c2ccccc2)cc1,23[16.7 µM]
COc1ccc(C(=O)Nc2ccc3c(c2)C(=O)N(C)C[C@H](OC)[C@H](C)CN(C)[C@@H](C)CO3)cc1,-7[16.7 µM]
O=C(C[C@H]1CC[C@@H]2[C@H](COC[C@@H](O)CN2C(=O)c2cccnc2)O1)Nc1ccc(-c2ccccc2)cc1,7[16.7 µM]
CCC(=O)N1C[C@@H](O)COC[C@H]2O[C@H](CC(=O)NCc3cc(F)cc(F)c3)CC[C@@H]21,-15[16.7 µM]
COc1ccccc1NC(=O)N1C[C@@H](O)COC[C@@H]2O[C@H](CC(=O)N3CCC(Cc4ccccc4)CC3)CC[C@H]21,7[16.7 µM]
O=C(C[C@H]1C[C@@H]2c3cc(NC(=O)c4ccc5c(c4)OCO5)ccc3O[C@@H]2[C@@H](CO)O1)NCc1ccccn1,12[16.7 µM]
C=CCN1C(=O)c2n[nH]c(C(C)C)c2C1c1ccc(C)cc1 (stereo unspecified),-8
O=C(C[C@H]1C[C@H]2c3cc(NC(=O)c4ccc5c(c4)OCO5)ccc3O[C@H]2[C@H](CO)O1)NC1CCCCC1,6[16.7 µM]
C[C@@H]1ON(C)[C@H]2C[C@H]3c4[nH]c5c(-c6ccccc6)cccc5c4CCN3C(=O)[C@@H]12,-6
COc1cccc(CNC(=O)[C@@H]2[C@@H](CO)[C@@H]3Cn4c(cccc4=O)[C@H]2N3C(=O)C2CCCCC2)c1,4[16.7 µM]
C[C@H]1CN([C@@H](C)CO)C(=O)c2ccccc2-c2ccccc2CO[C@@H]1CN(C)C(=O)C1CC1,-9[16.7 µM]
CCOc1ccc(NC(=O)CN2C(=O)c3cccc4cccc2c34)cc1,-11
CC1(C)CC(=O)C=C(c2ccccc2-c2cccc(C(N)=O)c2)C1=O,10

# Four compounds already listed, ordered by molar mass, rising.
Compound,Env fusion inh
CC1(C)CC(=O)C=C(c2ccccc2-c2cccc(C(N)=O)c2)C1=O,10
COc1ccc(C(=O)NCC2CCN(C(=O)C(=O)c3cccs3)CC2)cc1,-32
O=C(C[C@H]1CC[C@@H]2[C@H](COC[C@@H](O)CN2C(=O)c2cccnc2)O1)Nc1ccc(-c2ccccc2)cc1,7[16.7 µM]
COc1ccccc1NC(=O)N1C[C@@H](O)COC[C@@H]2O[C@H](CC(=O)N3CCC(Cc4ccccc4)CC3)CC[C@H]21,7[16.7 µM]

# Env fusion inh: entries above that show a hit
Compound,Env fusion inh
CC(C)NC(=O)Nc1ccc2c(c1)C(=O)N([C@@H](C)CO)C[C@@H](C)[C@@H](CN(C)C(=O)CCC(F)(F)F)OCCCC[C@@H](C)O2,86*[16.7 µM]

# Compound activity from PubChem.
